VDR inh = vitamin D3 receptor (human) inhibition; Potency, µM, for inactives: max response, negative = inhibition, hits mostly inhibitors; hit rate 0.93% among 400,000; VDR-SRC2-3 peptide fluorescence polarization, 2 h; P11473; active = well fitted inhibition curve with a large enough effect; inconclusive = small, poorly fitted or top-dose-only effect, or another doubt; inactive = no such curve, though single readings can be large or run the other way; also: series mostly up to about 120 µM
Target sequence (P11473 whole entry, looked up): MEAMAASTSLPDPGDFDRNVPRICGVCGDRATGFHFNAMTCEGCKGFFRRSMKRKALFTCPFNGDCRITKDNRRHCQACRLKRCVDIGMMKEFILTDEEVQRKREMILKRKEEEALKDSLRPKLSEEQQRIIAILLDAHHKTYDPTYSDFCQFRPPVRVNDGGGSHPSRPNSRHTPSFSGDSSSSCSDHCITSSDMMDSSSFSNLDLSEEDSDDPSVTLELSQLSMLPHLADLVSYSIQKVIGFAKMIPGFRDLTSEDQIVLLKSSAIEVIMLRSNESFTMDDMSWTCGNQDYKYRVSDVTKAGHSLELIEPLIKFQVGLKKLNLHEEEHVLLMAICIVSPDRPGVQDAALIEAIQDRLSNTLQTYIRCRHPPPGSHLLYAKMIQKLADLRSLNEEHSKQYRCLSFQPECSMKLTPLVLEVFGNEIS
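FP read-out; VDR + SRC2-3 coactivator peptide; 23 nl compound by pintool; 2 h RT incubation; reagents held at 4 deg C, protected from light.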
Active calls of the source: *; ? = inconclusive; & = joins results of further samples. % is scaled to controls: 0 for no effect and ±100 for the full control effect; potency is read from the fitted curve at half-maximal effect.

| smiles | VDR inh |
| --- | --- |
| COc1ccc2c(c1)CCc1c(C(=O)Nc3ccc(OC)c(OC)c3)noc1-2 | -5% |
| CCCc1nn2c(=O)cc(CSCC(=O)Nc3ccccc3)nc2s1 | -26% |
| CC(C)CCNC(=O)c1cccnc1Sc1ccccc1 | -15% |
| COc1ccc(NC(C)=O)cc1S(=O)(=O)N1CCc2ccccc21 | -2% |
| Cc1cc(C)c2oc(-c3cccc(N)c3)nc2c1 | -17% |
| CCCn1nnnc1SCC(=O)c1ccc2c(c1)OCCO2 | -22% |
| Cc1ccc(NC(=O)C2CCN(c3nc4ccccc4[nH]3)CC2)c(C)c1 | 4% |
| COc1ccc2[nH]c(=O)c(CN(Cc3ccco3)C(c3nnnn3Cc3ccccc3)C(C)C)cc2c1 (stereo not drawn) | -5% |
| O=C(CSc1nnc(SCc2ccc(Cl)cc2)s1)N/N=C/c1ccccc1Cl | 0% |
| Cc1ccc(C)c(-n2nnc(C(=O)Nc3ccc(Br)cc3)c2C)c1 | 10% |
| CCOC(=O)C1CCCN(Cc2ccccc2F)C1 (stereo not drawn) | -23% |
| COc1cc(C(=O)OCC(=O)N2CCCC2)cc(OC)c1OC | 15% |
| CC(C)n1cc(C#N)c(N)n1 | ? |
| CCOc1cc(C2C(C(C)=O)=C(O)C(=O)N2CCc2c[nH]c3ccccc23)ccc1O (stereo not drawn) | -19% |
| O=C(CC1C(=O)OCCN1Cc1ccccc1)Nc1ccc(F)cc1 (stereo not drawn) | -6% |

Reprinted at random: five entries already listed
| smiles | VDR inh |
| --- | --- |
| Cc1cc(C)c2oc(-c3cccc(N)c3)nc2c1 | -17% |
| O=C(CSc1nnc(SCc2ccc(Cl)cc2)s1)N/N=C/c1ccccc1Cl | 0% |
| CCOc1cc(C2C(C(C)=O)=C(O)C(=O)N2CCc2c[nH]c3ccccc23)ccc1O (stereo not drawn) | -19% |
| Cc1ccc(NC(=O)C2CCN(c3nc4ccccc4[nH]3)CC2)c(C)c1 | 4% |
| CCCn1nnnc1SCC(=O)c1ccc2c(c1)OCCO2 | -22% |

Continued.
| smiles | VDR inh |
| --- | --- |
| CN(C)S(=O)(=O)c1ccc2c(c1)N(CC(=O)N1CCN(c3ccc(F)cc3)CC1)CCS2 | 21% |
| Cc1ccc2cc(CCNC(=O)C3CCCCC3)c(=O)[nH]c2c1C | -21% |
| COc1ccc(F)cc1C(=O)C1CCCN(Cc2cnc(N3CCCC3)s2)C1 (stereo not drawn) | 11% |
| COc1ccc(S(=O)(=O)Cc2ccc(C(=O)NC3CCCCCC3)o2)cc1 | 3% |
| COC(=O)C[C@H]1c2cc(C(F)(F)F)ccc2S(=O)(=O)N1Cc1ccc(OC)cc1 | -7% |
| O=C(O)C(Cc1c[nH]c2ccccc12)NS(=O)(=O)c1ccccc1 (stereo not drawn) | -8% |
| COC(=O)c1sc(C(F)(F)F)c(-c2ccccc2)c1S(=O)(=O)N(C)C | -12% |
| O=C(CSc1nc(=O)n(CCCN2CCOCC2)c2c1CCCC2)Nc1cccc(F)c1 | -9% |
| CCc1ccc(NC(=O)c2ccc(-c3ccccc3)s2)cc1 | -5% |
| COc1ccc(Cc2nnc(SCC(=O)Nc3ccc(C)c(Cl)c3)[nH]c2=O)cc1 | 17% |
| COc1ccc2sc(-c3ccc(N(C)C)cc3)c(C#CCCO)c2c1 | 11% |
| Cc1cccc(C)c1NC(=O)CSc1nnnn1C | 8% |
| O=c1cc(-c2ccc(O)c(O)c2)oc2ccc3ccccc3c12 | 4% |
| CC(C)CCNC(=O)c1ccc2c(c1)N(C)C(=O)c1ccccc1S2 | -8%&2% |
| O=C/C=C/c1c(-c2ccccc2)cc2oc3ccccc3cc1-2 | 35µM* |
| CS(=O)(=O)NCCCNc1c(Cl)cccc1[N+](=O)[O-] | -11% |
| Cc1cc(=O)[nH]c(NCc2ccc(Cl)cc2)n1 | 1% |
| CC1CC=CC2C1C(=O)N(Cc1ccccc1)C2c1ccc(C(F)(F)F)cc1 (stereo not drawn) | -21% |
| CC(C)Cc1nc2ccc(N)cc2[nH]1 | 13% |
| Fc1ccc(CSc2ncnc3c2ncn3C2CCCCO2)cc1 (stereo not drawn) | 11% |
| Cc1cccc(C)c1NC(=O)CN(C1CCCCC1)S(C)(=O)=O | -6% |
| CCN(CCn1cccn1)C(=O)CC1C(=O)NCCN1Cc1cc(OC)cc(OC)c1 (stereo not drawn) | -7% |
| NC(=O)c1c(NC(=O)COC(=O)c2ccc(O)c(Cl)c2)sc2c1CCCC2 | -4% |
| CCOc1ccc(CN2CCN(Cc3nc(C(C)C)cs3)CC2CCO)cc1 (stereo not drawn) | -14% |
| O=C1CSC(c2ccncc2)N1Cc1ccco1 (stereo not drawn) | -3% |
| CC(=O)c1sc(NC(=O)Cc2c(F)cccc2Cl)nc1C | -4% |
| COc1ccc(CCNC(=O)COc2nsnc2N2CCOCC2)cc1OC | -24% |
| O=c1cc(-c2ccccc2)c2c([nH]1)CCCC2 | 1% |
| CCCNS(=O)(=O)c1ccc(CCC(=O)Nc2cc(Cl)ccc2Oc2ccccc2)cc1 | 12% |
| CCOc1cc(N2CCOCC2)c(OCC)cc1NC(=O)C1CCCC1 | -7% |
| CCOc1cc(C)c(C(C)C)cc1S(=O)(=O)n1cnc(C)c1 | -12% |
| C=CCN(C(C(=O)OC)C(C)C)S(=O)(=O)CCl (stereo not drawn) | -9% |
| COc1cccc(CN(CC(=O)NC2CCCC2)C(=O)CCC(=O)Nc2cc(C)on2)c1 | 2% |
| CC(=O)Nc1ccc(C(=O)OCc2ccc(F)cc2)cc1 | 11% |
| CN(C)C(=O)C12CCC(C)(c3nc4ccccc4nc31)C2(C)C (stereo not drawn) | 19% |
| CCOc1ccccc1C(=O)OCC(=O)NCC1CCCO1 (stereo not drawn) | -7% |
| CC(=O)c1cc(-c2ccccc2)n(CCC(=O)NC2CCC(C)CC2)c1C (stereo not drawn) | 16% |
| CC(NC(=O)c1cc(S(=O)(=O)N(C)C)ccc1N1CCCC1)C1CC2CCC1C2 (stereo not drawn) | -2% |
| CN(c1cccc(Cl)c1)S(=O)(=O)c1cccc(C(=O)NC2=NCCS2)c1 | 12% |
| O=C1NC(=S)SC1=Cc1ccccc1Cl | ? |
| O=C(/C=C/c1ccccc1Cl)NCCCn1ccnc1 | 3% |
| CCc1ccc(Nc2n[n+](-c3ccccc3)c(-c3ccc(SC)cc3)s2)cc1 | -8% |
| CC(C)(C)c1ccc(/C=C2\CCn3c2nc2cc(C(=O)O)ccc2c3=O)cc1 | -5% |
| CCOc1[nH]n(-c2ccccc2)c(=O)c1C=Nc1ccc(F)cc1F | -11% |
| CC(C)(C)[C@@H]1C=C(C(=O)NCc2ccccc2)O[C@H](OCc2ccc(CO)cc2)C1 | -10% |

A stretch of the results above:
| smiles | VDR inh |
| --- | --- |
| CCN(CCn1cccn1)C(=O)CC1C(=O)NCCN1Cc1cc(OC)cc(OC)c1 (stereo not drawn) | -7% |
| NC(=O)c1c(NC(=O)COC(=O)c2ccc(O)c(Cl)c2)sc2c1CCCC2 | -4% |
| CCOc1ccc(CN2CCN(Cc3nc(C(C)C)cs3)CC2CCO)cc1 (stereo not drawn) | -14% |
| O=C1CSC(c2ccncc2)N1Cc1ccco1 (stereo not drawn) | -3% |
| CC(=O)c1sc(NC(=O)Cc2c(F)cccc2Cl)nc1C | -4% |
| COc1ccc(CCNC(=O)COc2nsnc2N2CCOCC2)cc1OC | -24% |

Other entries.
| smiles | VDR inh |
| --- | --- |
| Cc1ccc(-c2nnc(N3CCCCCC3)c3ccccc23)cc1 | 2% |
| COc1ccc(OC)c(N)c1 | ? |
| COc1ccccc1N1CCN(S(=O)(=O)CCNC(=O)CCCc2ccccc2)CC1 | -3% |
| Cc1ccc(C(=O)NCCc2nc3ccccc3[nH]2)cc1[N+](=O)[O-] | -2% |
| COC(=O)c1c(C(=O)OC)c(-c2ccccc2)n2c1CS(=O)C2 (stereo not drawn) | 22% |
| CCOc1ccccc1/C=N/N1CCN(Cc2ccccc2)CC1 | -7% |
| OC1(c2ccccc2F)CCN(Cc2nnnn2Cc2ccc(F)cc2)CC1 | 3% |
| CCCCOn1c(C)c(C(=O)OCC)c2c3nonc3ccc21 | 11% |
| Cc1ccc(CCC(=O)Nc2ncc(Cc3cccc(Cl)c3Cl)s2)o1 | -10% |
| COc1cc(C(=O)Oc2cc(C)[nH]c(=O)c2[N+](=O)[O-])cc(OC)c1OC | 6% |
| Cn1c(=O)c2c(nc(NCc3ccccc3)n2Cc2ccccc2)n(C)c1=O | -14% |
| CCNc1nc(NCC)nc(OCCOC(=O)COc2ccc(Cl)cc2Cl)n1 | -6% |
| Cc1ccc2nc3c(cc(C(N)=S)c(=N)n3CCCOC(C)C)c(=O)n2c1 | ? |
| Cn1c(=O)c2c(ncn2CC(=O)NC(C)(C)C)n(C)c1=O | 0% |
| CC(C)(C)OC(=O)N1CCN(CCNC(=O)c2ccccc2)CC1 | 14% |
| CCOc1ccc2[nH]c(=O)c(CN(CCc3ccccc3)C(=O)c3cnccn3)cc2c1 | 14% |
| Cc1cc2c(cc1Cl)N(C(=O)Nc1ccnc3ccccc13)CC2 | ? |
| Cn1cc(C2=C(c3cn(CCCSC(=N)N)c4ccccc34)C(=O)NC2=O)c2ccccc21 | -5%&-9% |
| CCN(C[C@H]1N[C@@](Cc2ccccc2)(C(=O)OC)[C@H]2C(=O)N(Cc3ccccc3)C(=O)[C@@H]12)C(=O)c1ccc(F)cc1 | -21% |
| C#CC[N+]1(CC#Cc2ccccc2)CCCC1 | -9% |
| CCn1c(=NC(=O)CCS(=O)(=O)c2ccccc2)sc2cccc(OC)c21 | -23% |
| Cc1nc2ccccc2c2nc(N)nn12 | -15% |
| Cc1ccc(S(=O)(=O)N2CCN(S(=O)(=O)c3cccs3)CC2)cc1 | -12% |
| COc1nc(NCCc2ccc(OC)c(OC)c2)nc(NC(C)(C)CO)n1 | -2% |
| COC(=O)C1=C(C)N(CC2CCCO2)C(=O)/C1=C\c1ccc(O)cc1 (stereo not drawn) | -14% |
| Clc1ccc(C(Cn2ccnc2)OCc2c(Cl)cccc2Cl)c(Cl)c1 (stereo not drawn) | -13% |
| CSc1ccc(CCNC(=O)C2CCN(c3nc4ccccc4nc3C(F)(F)F)CC2)cc1 | 6% |
| Cc1ccc(C(=O)NCCNc2ccc(Cl)cc2[N+](=O)[O-])o1 | 0% |
| COC(=O)c1sc(NC(=O)c2cc(C)on2)nc1C | 4% |
| O=C(Nc1ccc(C(=O)O)cc1)/C(=C\c1ccco1)NC(=O)c1ccc(Br)o1 | -4% |
| Cn1c(NC(=O)c2ccc(Br)o2)cc(=O)n(C)c1=O | -2% |
| COc1ccc(/C=N/NC(=O)c2cc[n+]([O-])cc2)cc1O | -5% |
| CCOc1ccc(-c2nnc(NC(=O)Cc3cc(OC)c(OC)c(OC)c3)o2)cc1 | -16% |
| Cc1cc2oc(=O)cc(CN3CCOCC3)c2cc1C | -13% |
| O=C1OC(Nc2nc3ccccc3s2)c2ccccc21 (stereo not drawn) | 4% |
| CCOc1cc(/C=N/N=C2/NC(=O)C(CC(=O)O)S2)ccc1OS(=O)(=O)c1ccc(C)cc1 (stereo not drawn) | -1% |
| CCCn1c(Cc2ccccc2)nnc1SC(C)C(=O)NC1CC1 (stereo not drawn) | -11% |
| CC(=O)c1c(C)oc2c(Cl)cc(NS(=O)(=O)c3cc(C)c(C)cc3C)cc12 | 2% |
| O=c1c2ccccc2nc(SCc2cccc(F)c2)n1C1CCCC1 | -8% |
| COc1ccc(N2CCN(CC(=O)Nc3nc4c(s3)CC(C)CC4)CC2)cc1 (stereo not drawn) | 4% |
| CCOc1ccc(NC(=O)NCCN2CCN(c3ccccc3F)CC2)cc1 | 20%&-14% |
| O=C(Nc1ccc(Br)cc1)c1ccc(Br)c(S(=O)(=O)NCc2ccccc2)c1 | 2% |
| CS(=O)(=O)NCCSCc1ccco1 | -21% |
| Cc1oc(-c2ccc(Cl)cc2)nc1CN1CCCC(C(=O)NCc2cccnc2)C1 (stereo not drawn) | -12% |
| C=CCc1cccc(CNc2ccc(Br)cc2)c1O | 13% |
| COCCOC(=O)C1=C(C)Nc2ncnn2C1c1ccccc1 (stereo not drawn) | -4% |
| CC12CCC(C(=O)NCc3ccccc3Cl)(C(Br)C1=O)C2(C)C (stereo not drawn) | 9% |
| CS(=O)(=O)c1ccc2nc(NC(=O)c3cc([N+](=O)[O-])cc([N+](=O)[O-])c3)sc2c1 | -13% |
| Cc1ccc(NS(=O)(=O)c2ccc(C(=O)NCc3cccnc3)cc2)cc1 | 8% |
| CCCc1cc(=O)oc2cc(C)cc(OCC(=O)NCc3ccccn3)c12 | 18% |
| COc1cccc(NC(=O)Nc2cc(C(=O)NCC3CCCO3)ccc2N2CC3CC(C2)c2cccc(=O)n2C3)c1 (stereo not drawn) | 10% |
| c1ccc2[nH]c(CN3CCOCC3)nc2c1 | 15% |
| Cn1c(=O)c2sccc2n2c(CCCC(=O)NCCc3ccc(S(N)(=O)=O)cc3)nnc12 | 4% |
| Cc1nn(Cc2ccccc2)c(C)c1NC(=O)CSc1n[nH]c(C)c1[N+](=O)[O-] | 2% |
| O=C(Nc1ccc(Cl)cc1)N1CCOC12CCCCC2 | 10% |
| COCCN1C(=O)c2oc3ccc(C)cc3c(=O)c2C12C(=O)N(C)c1ccccc12 (stereo not drawn) | 6% |
| CCn1c(SCC(=O)Nc2nccs2)nnc1-c1ccncc1 | -8% |
| O=C(COc1ccccc1Cl)NCc1ccncc1 | 27% |
| O=C(Nc1ccc(F)c(F)c1)c1cnc(-c2ccccc2)nc1-c1ccccc1 | 3% |
| Cc1ccc(CCN2CC(C(=O)NC3CCCCC3)CC2=O)cc1 (stereo not drawn) | -2% |

Additional compounds follow:
| smiles | VDR inh |
| --- | --- |
| Cc1c(Cl)cccc1NC(=O)CSc1sc2c(O)cc(=O)[nH]c2c1C#N | 1% |
| Cc1ccc(S(=O)(=O)N2CCOCC2)cc1NC(=O)COC(=O)c1ccc(Br)cc1 | -10% |
| O=C(COC(=O)c1ccc(S(=O)(=O)NCc2ccco2)cc1)Nc1ccc(OC(F)F)cc1 | 6% |
| COc1cccc(N2CCN(Cc3nc4scc(-c5ccccc5)c4c(=O)[nH]3)CC2)c1 | -8% |
| Nc1ccc2oc(-c3ccc4nc[nH]c4c3)nc2c1 | -3% |

High-throughput results as filed in PubChem.

Only part of the results is shown, so the mix of outcomes need not match the whole.
